KCNQ2 enhance = potentiators of rat KCNQ2 potassium channel. AID 2239, 2010. B-score at 10 µM. hit rate 0.54% among 310,000. CHO-K1 KCNQ2, FluxOR thallium flux fluorescence; stronger effect = higher value. Potassium voltage-gated channel subfamily KQT member 2 (Rattus norvegicus), O88943;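 active = fluorescence ratio B-score at least 3 SD of library B-scores, with initial fluorescence B-score within 3 SD, cut at about 5.3 in these data; same plate scores as AID 2156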;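 note: B-score of peak minus minimum over baseline fluorescence ratio after K+ and Tl+ stimulus; positive B-score means potentiation of KCNQ2 with more thallium influx and brighter signal; only the inactives scoring about 0 or higher are listed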
Target sequence (O88943 whole entry, looked up): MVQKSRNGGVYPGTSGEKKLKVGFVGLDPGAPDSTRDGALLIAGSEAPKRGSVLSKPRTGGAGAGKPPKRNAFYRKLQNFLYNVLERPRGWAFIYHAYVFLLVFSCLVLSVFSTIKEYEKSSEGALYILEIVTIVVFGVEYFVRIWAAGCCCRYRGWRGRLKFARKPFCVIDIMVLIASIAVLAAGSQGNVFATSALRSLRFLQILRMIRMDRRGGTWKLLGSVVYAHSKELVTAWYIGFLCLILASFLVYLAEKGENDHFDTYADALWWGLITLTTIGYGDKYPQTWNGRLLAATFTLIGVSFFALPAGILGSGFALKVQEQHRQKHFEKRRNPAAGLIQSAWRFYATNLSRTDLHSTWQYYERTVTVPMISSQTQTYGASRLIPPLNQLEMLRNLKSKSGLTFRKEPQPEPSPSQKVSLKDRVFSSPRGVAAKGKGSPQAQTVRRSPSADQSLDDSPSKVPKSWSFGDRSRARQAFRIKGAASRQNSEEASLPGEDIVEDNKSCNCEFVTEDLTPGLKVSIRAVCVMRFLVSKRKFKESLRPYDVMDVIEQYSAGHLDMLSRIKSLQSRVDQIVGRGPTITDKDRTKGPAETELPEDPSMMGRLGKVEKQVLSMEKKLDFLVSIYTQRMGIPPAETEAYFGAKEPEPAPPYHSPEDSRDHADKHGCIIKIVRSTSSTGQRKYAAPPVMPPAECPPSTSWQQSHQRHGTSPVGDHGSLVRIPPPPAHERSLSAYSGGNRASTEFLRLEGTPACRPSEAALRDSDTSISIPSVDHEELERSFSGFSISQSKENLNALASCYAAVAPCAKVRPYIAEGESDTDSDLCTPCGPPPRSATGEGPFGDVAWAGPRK
KCNQ2 enhance baseline = second read-out of KCNQ2 enhance, no call of its own (marks repeat the call); B-score; compound at 10 µM; measured here: initial fluorescence intensity artifact check;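 brightness before thallium and not channel activity; 0 = typical well and far values either way flag optical interference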
An asterisk follows results filed as active. Not all compounds are listed (hit frequency here may not be typical).

KCNQ2 enhance	KCNQ2 enhance baseline	compound
0.63	0.05	O=c1c2cc(NC(=S)NC3CCCC3)ccc2nc2n1CCCCC2
0.18	-0.87	C/C(=C\c1ccccc1)C(=O)c1c(C)cc(C)[nH]c1=O
1.5	-0.38	CCCC(=O)Nc1ccc(Cl)c(NC(=S)NC(=O)c2cc3ccccc3o2)c1
0.04	-1.3	CN(N)c1nc(-c2ccccc2)cc(-c2ccccc2)n1
1.25	1.93	COc1ccc(CC(=O)Nc2cc(S(=O)(=O)N3CCCCC3)ccc2N2CCN(C)CC2)cc1
1.6	0.69	OCCCNc1nccc(-c2cc(Nc3cccc(Cl)c3)ncn2)n1
0.33	0.65	COC(=O)c1c(-c2cccc(OC)c2)csc1N
0.77	-0.43	COc1cc(C2C(C#N)=C(N)Oc3n[nH]c(-c4cccnc4)c32)cc(Br)c1O (configuration not stated)
1.24	-1.1	COc1ccc(/C=N/NC(=O)Cn2ccnc2C)cc1OC
0.64	-0.19	CCOc1cccc2cc(C(C)=O)oc12
1.88	0.16	O=C(Cn1nc(-c2ccccc2)c2ccccc2c1=O)Nc1cccnc1
1.28	0.24	CN(C)CCOc1ccc(Cl)cc1C(C)(C)C
0.19	0.16	COc1ccc(C(c2nnnn2C(C)(C)C)N2CCN(C(=O)c3ccco3)CC2)cc1 (configuration not stated)
0.68	-0.29	O=C(Nc1ccc(F)cc1)Nc1cc(S(=O)(=O)N2CCOCC2)ccc1N1CCCC1
0.23	-1.21	COc1ccc(C(=O)COC(=O)C(CCCCN2C(=O)C3C4C=CC(C4)C3C2=O)N2C(=O)C3C4C=CC(C4)C3C2=O)cc1 (configuration not stated)

The list continues:
KCNQ2 enhance	KCNQ2 enhance baseline	compound
0.01	1.14	COC(=O)/C=c1/s/c(=C(\C#N)C(=O)NCc2ccco2)n(-c2ccc(C)cc2)c1=O
1.53	2.08	CC(=O)NCc1c(Cl)cccc1-n1cccc1
0.41	0.08	O=S1(=O)CCN2N=C(C34CC5CC(CC(C5)C3)C4)SC2=N1
2.5	-1.28	O=C(Nc1nccs1)c1cc(S(=O)(=O)N2CCOCC2)c(Cl)cc1Cl
1.82	-0.14	Cc1c2cnn(CC(=O)NCc3ccccn3)c(=O)c2c(C)n1Cc1ccc(Cl)cc1
0.14	-0.1	COc1ccc(NC(=O)C(c2ccccn2)N(C(C)=O)c2ccc(C)cc2)cc1 (configuration not stated)
0.07	0.3	CN1CCN(CCCNC(=O)C2CCN(c3nnc(-n4cccc4)s3)CC2)CC1
2.78	1.66	CN(C)CCNC(=O)c1ccc2c(c1)N(Cc1ccc(F)cc1)CCS2
1.29	-0.66	Cc1ccccc1C(=O)Nc1ccnn1C1CCN(Cc2cnn(C(C)C)c2)CC1
2.17	-0.07	CC1=C(C#N)C(=O)NC(=O)/C1=C/c1ccc(-c2ccc(S(N)(=O)=O)cc2)o1
0.2	-0.47	COc1ccc2cc3cc(C(=O)Nc4ccc5c(c4)OCCO5)oc3nc2c1
0.91	0.9	CC(=O)c1ccc2c(c1)C1C=CCC1C(c1ccncc1)N2 (configuration not stated)
1.33	-0.4	CCc1noc(C)c1C(=O)Nc1ccc(S(=O)(=O)N2CCCC(C)C2)cc1 (configuration not stated)
0.68	0.6	CC12CCC(=O)N1C(C(=O)OCc1c(Cl)cccc1Cl)CS2 (configuration not stated)
0.81	0.18	CCOC(=O)N1CCC(NC(=O)CC2C(=O)NCCN2Cc2ccccc2)CC1 (configuration not stated)

Later entries:
KCNQ2 enhance	KCNQ2 enhance baseline	compound
1.1	2.59	Cc1cc(C=O)c(O)cc1O
0.99	-0.77	Cc1cc(C)c(C)c(S(=O)(=O)NCC(=O)N2CCCC2)c1C
1.9	0.05	O=C(CN1C(=O)S/C(=C\c2ccccc2F)C1=O)NC1CCS(=O)(=O)C1 (configuration not stated)
0.65	0.11	CSc1ccccc1C(=O)NCCS(=O)(=O)N1CCN(c2ccc(F)cc2)CC1
0.76	-1.02	COc1ccc(NC(=O)CCNS(=O)(=O)c2ccc3[nH]c(=O)oc3c2)cc1Cl
0.01	-0.58	Cc1ccccc1-c1nnn(CC(=O)N2CCN(C(=O)c3ccco3)CC2)n1
0.77	-0.06	CCCCn1c(N)c(N(CC(C)C)C(=O)C2CC(=O)N(Cc3ccco3)C2)c(=O)[nH]c1=O (configuration not stated)
0.86	0.6	COc1ccc(CCNC(=O)c2ccc3c(c2)NC(=O)C(C(C)C)N3)cc1OC (configuration not stated)
0.05	1.31	N/N=C/C(=N\Nc1ccc(Cl)cc1)C(=O)c1ccncc1
0.14	-0.1	Cc1ccc(NCN2C(=O)C3CC=C(Cl)CC3C2=O)cc1 (configuration not stated)
0.66	1.38	CC(NC(=O)C(=O)N1CCCCC1)C(c1cccs1)N1CCN(c2ccc(F)cc2)CC1 (configuration not stated)
1.65	-1.51	O=C(COC(=O)c1cccc2ccccc12)NCC1CCCO1 (configuration not stated)
1.23	0	CC(C)c1nnc(NC(=O)CCC(=O)NCc2ccc(F)cc2)s1
0.97	0.1	O=S(=O)(Nc1ccccc1O)c1ccc(-c2ccccc2)cc1
0.61	-2.3	CCCCOC(=O)/C=C/c1ccc(OC(=O)OC)c(OC(=O)OC)c1

Reprinted from the entries so far, 2 compounds:
KCNQ2 enhance	KCNQ2 enhance baseline	compound
1.1	2.59	Cc1cc(C=O)c(O)cc1O
0.99	-0.77	Cc1cc(C)c(C)c(S(=O)(=O)NCC(=O)N2CCCC2)c1C

(further entries)
KCNQ2 enhance	KCNQ2 enhance baseline	compound
0.49	-3.83	Cc1ccc(-c2c3c(=O)n(C)c(=O)n(C)c3cn2N2CCOCC2)cc1
1.29	1.35	CCC1(c2ccc(F)cc2)NC(=O)N(CC(=O)Nc2ccccc2C)C1=O (configuration not stated)
1.35	-2.35	Clc1ccc2c(c1)nc1n2CCCC1
0.2	0.7	Cc1cc(C)n(C(=O)/C(C#N)=N/Nc2cc(Cl)cc(Cl)c2)n1
0.83	-0.75	C#Cc1ccc(C(=O)Nc2ccc(N3CCC(C)CC3)c(C(N)=O)c2)cc1
3.2	0.09	OCCN1CCN(C(=S)Nc2cccc(C(F)(F)F)c2)CC1
2.76	0.58	O=C(Cn1cccc1C(=O)c1ccccc1)NCCC1=CCCCC1
0.94	-0.77	O=C(Cc1ccc(Cl)c(Cl)c1)Nc1ccc(SC(F)F)cc1
0.5	1.16	CC1CC(C)CN(CCC(=O)Nc2cccc(Cl)c2)C1 (configuration not stated)
0.6	-0.31	CN(C)S(=O)(=O)c1cc(NC(=O)COC(=O)Cc2cccc3ccccc23)ccc1Cl
0.59	-0.58	O=S(=O)(c1ccc(OCC(O)CN2CCCCC2)cc1)N1CCOCC1 (configuration not stated)
0.14	-0.62	N#Cc1c(Nc2ccccc2)sc(C(=O)c2ccc(F)cc2)c1N
0.88	1.44	O=C1OCCC1Sc1nc(-c2ccccc2)cs1 (configuration not stated)
0.51	0.87	O=C(CC(c1ccccc1)c1cc(Cl)ccc1O)NCCCN1CCOCC1 (configuration not stated)
0.67	-1.05	COc1ccc(N2CCN(S(=O)(=O)CCNC(=O)/C=C/c3ccccc3)CC2)cc1

Other entries follow.
KCNQ2 enhance	KCNQ2 enhance baseline	compound
0.85	-0.45	O=C(Nc1ccc(S(=O)(=O)Nc2ccccc2)cc1)c1ccc(CN2CCOCC2)cc1
1.12	-0.03	CC1CCC(NC(=O)CCS(=O)(=O)c2ccc3c(c2)NC(=O)C(C)S3)CC1 (configuration not stated)
1.12	1.4	CCC(C(=O)NCCC(C)C)N(Cc1ccccc1Cl)C(=O)c1snc(C(N)=O)c1N (configuration not stated)
0.22	-1.45	O=C(CSCc1ccc(F)cc1)NCc1ccco1
0.13	0.82	Cc1cccc(C)c1NC(=O)CNc1ccccc1
1.11	-0.04	CCCNC(=O)CCn1cc(-c2ccc(OC)cc2)nc1-c1ccncc1
0.45	-1.35	Cc1ccc(C(N)=O)cc1S(=O)(=O)Nc1cccc(C)c1C
0.91	0.84	C#CCSc1nc(=O)c2cccnc2n1-c1ccc(C)cc1
0.02	2	CCN(Cc1ccccc1)C(=O)COC(=O)Cn1cnc2ccccc21
0.13	1.51	COc1cccc(N/C(N)=N/c2nc(C(F)(F)F)cc(=O)[nH]2)c1
1.84	1.33	N#CCC(=O)N/N=C/c1ccc(OC2CSC2)cc1
2.32	-0.49	Cc1ccc(/C=N/NC(=O)Cn2cncn2)cc1
0.01	-0.94	Cc1cc([N+](=O)[O-])c(NC2CCCCC2)c([N+](=O)[O-])c1
0.06	0.22	CCOC(=O)c1ccc(NC(=O)CSc2nnc(C3CC3)n2C)cc1
0.18	-1.59	O=C(CSc1nc2ccccc2[nH]1)Nc1ccc2c(c1)OCCO2

Next part:
KCNQ2 enhance	KCNQ2 enhance baseline	compound
5.65*	0.49*	O=c1ccsn1Cc1ccccc1
0.55	0.95	CC(=O)N1c2ccc(S(=O)(=O)N(C)CC(=O)NCc3ccccc3)cc2CC1C (configuration not stated)
0.08	0.06	C[C@]12CCC3c4ccc(O)cc4CCC3C1CC/C2=N\N (some centres not stated)
0.45	1.38	Cc1csc(SCC(=O)Nc2cc(S(=O)(=O)N(C)C)ccc2C)n1
0.16	-0.05	Cc1ccc(S(=O)(=O)CCc2nc3ccccc3[nH]2)cc1C
2.57	-0.09	Cc1ccc(CCNC(=O)c2cc(-c3ccncc3)nc3ccc(S(=O)(=O)N4CCOCC4)cc23)cc1
0.01	0.09	Cc1ccc(S(=O)(=O)NCC(c2ccco2)N2CCOCC2)cc1 (configuration not stated)
0.57	-0.59	Cc1ccc2c(CC(=O)NCC(=O)Nc3c(C)cccc3C)coc2c1
0.77	0.62	CCOc1ccc(Nc2nnc(SCc3nc4ccccc4c(=O)[nH]3)s2)cc1
2.84	-0.4	CCCc1nc2sc3c(=O)[nH]cnc3c2c2c1CCCC2
1.15	-1.78	COc1ccc(NC(=S)NCc2cccnc2)cc1
0.02	-0.02	O=C(O)C(=O)Nc1nc(-c2ccc3c(c2)OCCO3)cs1
0.2	-3.61	COCCCNC(=O)Cn1nnc(-c2ccccc2NC(=O)c2ccccc2F)n1
0.09	1.52	Cc1cccc(NCCC#N)c1
0.98	-2.2	COc1ccc(CC(=O)OCc2cc(=O)n3cc(Br)ccc3n2)cc1OC

Copied from the list.
For KCNQ2 enhance baseline, Cc1csc(SCC(=O)Nc2cc(S(=O)(=O)N(C)C)ccc2C)n1 shows 1.38
For KCNQ2 enhance, CC(=O)N1c2ccc(S(=O)(=O)N(C)CC(=O)NCc3ccccc3)cc2CC1C (configuration not stated) shows 0.55
For KCNQ2 enhance baseline, Cc1ccc(CCNC(=O)c2cc(-c3ccncc3)nc3ccc(S(=O)(=O)N4CCOCC4)cc23)cc1 shows -0.09

Filtered by structure: those above with a CF3 group (two)
KCNQ2 enhance	KCNQ2 enhance baseline	compound
3.2	0.09	OCCN1CCN(C(=S)Nc2cccc(C(F)(F)F)c2)CC1
0.13	1.51	COc1cccc(N/C(N)=N/c2nc(C(F)(F)F)cc(=O)[nH]2)c1

Next compounds follow.
KCNQ2 enhance	KCNQ2 enhance baseline	compound
0.33	-0.16	CCn1c(CSc2nc3ccccc3s2)nnc1SCC(=O)c1ccc(O)cc1O
1.14	-0.03	CC(C)Cn1c(N)c(/C=N/NC(=O)c2ccc(Cl)cc2)c(=O)n(C)c1=O
0.08	-0.72	CNc1ccc(/C=C(\C#N)c2ccccn2)cc1[N+](=O)[O-]
1.32	0.29	CCC(CO)NCc1ccc2c(c1)n(C)c(=O)n2C (configuration not stated)
2.56	1.49	C/C=C/C(=O)Nc1nnc(-c2ccccc2C)s1
0.04	1.74	COc1ccc(-c2cc(C(F)(F)F)n3nc(C(=O)N4CCOCC4)nc3n2)cc1
0.19	-0.09	C=CCOc1ccccc1C1C2=C(CC(C)(C)CC2=O)Nc2c1c(=O)n(C)c(=O)n2C (configuration not stated)
2.11	3.18	C[N+]1(C)CC2([N+](=O)[O-])CC=C(Oc3ccccc3)C([N+](=O)[O-])(C2)C1 (configuration not stated)
0.06	0.44	O=C(CN1C(=O)/C(=C/c2ccccc2F)Oc2ccccc21)N1CCN(c2ccccn2)CC1
1.35	-0.54	O=C(Nc1ccccc1)c1ccccc1N=Cc1cccc(O)c1
0.55	3.01	Cc1nn(C)c(NC(=O)c2ccccc2Cl)c1Cl
1.05	0.08	COc1ccc(/C(N)=N/OC(=O)Oc2ccccc2)cc1OC
0.07	-1.74	COc1cc(NC(=O)CC(C)S(=O)(=O)c2ccc3c(c2)NC(=O)CO3)cc(OC)c1OC (configuration not stated)
1.22	0.69	Fc1ccc(CSc2nc3ncc(Br)cc3[nH]2)cc1
1.02	2.64	COC(=O)c1cc(Br)c(=O)n(-c2ccccc2F)c1

The results go on.
KCNQ2 enhance	KCNQ2 enhance baseline	compound
1.45	-0.5	CC1CCN(C(=O)CSc2nc3c(c(=O)n(C)c(=O)n3C)n2C)CC1
0.51	-0.1	CC(C)Oc1ccc(C(=O)CCN2CCOCC2)cc1
1.03	-0.62	O=C(C1CCCC1)N1CCN(S(=O)(=O)c2cccc(Cl)c2Cl)CC1
2.15	0	Brc1ccc(Nc2c3c(nc4ncnn24)CCC3)cc1
0.4	-0.92	Cc1ccc(C(=O)Oc2ccc(Cl)c3cccnc23)cc1[N+](=O)[O-]
0.35	-1.2	CC1(C)CCC(=O)N(c2ccc(OC(F)(F)F)cc2)C1=O
0.71	0.23	COc1ccc(NC(=O)COC(=O)Cn2cnc3ccccc3c2=O)cc1OC
0.46	0.16	CCOC(=O)C1=C(O)/C(=C/c2cc(C)n(-c3ccccc3)c2C)N=C1C

Part of the list above, field by field.
> CC1(C)CCC(=O)N(c2ccc(OC(F)(F)F)cc2)C1=O
- KCNQ2 enhance = 0.35
- KCNQ2 enhance baseline = -1.2
> Cc1ccc(C(=O)Oc2ccc(Cl)c3cccnc23)cc1[N+](=O)[O-]
- KCNQ2 enhance = 0.4
- KCNQ2 enhance baseline = -0.92
> Brc1ccc(Nc2c3c(nc4ncnn24)CCC3)cc1
- KCNQ2 enhance = 2.15
- KCNQ2 enhance baseline = 0
> COc1ccc(NC(=O)COC(=O)Cn2cnc3ccccc3c2=O)cc1OC
- KCNQ2 enhance = 0.71
- KCNQ2 enhance baseline = 0.23

Screens: PubChem, Johns Hopkins Ion Channel Center
